PrP UTR inh: inhibition of PrP 5' UTR reporter expression; cell-based PrP 5' UTR mRNA reporter, plate reader; inhibition, % (concentration not given with the values); 0.35% of 340,000 active; AID 488862;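 active = every replicate at 50% or more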;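 note: 0 = median of the neutral control wells; tested in H4 reporter cells; numbers are from one replicate; inactives centre near -14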
RN4220 kill: kills Staphylococcus aureus RN4220. AID 1259311. 0.33% of 330,000 active. S. aureus RN4220 growth, OD600, 16 h. inhibition, % (no concentration beside the values);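 active = z-score of -3 or lower and OD600 up to 0.18 on both plates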;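 note: plate controls were untreated cells for no effect and reference antibiotic for full effect; stock transfer was 100 nL into about 80 µL; one replicate is shown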
BJeLR viability: BJeLR cell viability loss | BJeLR (HRASV12) viability, CellTiter-Glo ATP luminescence, 48 h; reference of the scale not given here | inhibition, % (concentration not given with the values) | 0.17% of 300,000 active | AID 1554;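 active = replicate mean above 50%; inconclusive = above 50% but judged a plate artefact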;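 note: 50 nL library stock added to about 25 µL; numbers are from one replicate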
Sa ugtP lethal: compounds lethal to S. aureus RN4220 ugtP deletion mutant; OD600 growth, 16 h; some inactives read as strong as hits; growth inhibition, % (no concentration beside the values); 0.54% of 330,000 active; AID 1259309;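 active = z-score under -3 and OD600 up to 0.15 on both plates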;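 note: plate controls were untreated wells for no effect and antibiotic for full effect; wells of about 80 µL received 100 nL stock; the first replicate is given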
Mtb hypoxia inh: inhibitors of hypoxia-regulated fluorescent reporter in Mycobacterium tuberculosis; M. tuberculosis hypoxia-regulated fluorescent reporter, fluorescence; fluorescence inhibition, % (no concentration beside the values); 0.1% of 300,000 active;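 active = 35 to 45% if threefold the growth effect, above 45% if 1.5-fold the growth effect; inactive = the rest, general growth blockers included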;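 note: wells of about 50 µL received 100 nL stock; 0% = vehicle wells and 100% = reference inhibitor wells; whole bacteria with a GFP reporter of the hypoxia response; strong numbers were not always called active; many hits fall short of the cut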
Autofluor counter: flagged as autofluorescent in microsphere protease counterscreen; 3.1% of 360,000 active; fluorescence intensity (concentration not given with the values); compound autofluorescence counterscreen, microsphere flow cytometry; hits give high values;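 active = at least 3 SD above the mean of all compounds, about 16000 in these data; inconclusive = too few beads counted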;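 note: 100 nL of 1 mM stock went into each well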
Mtb hypoxia inh growth: recorded beside Mtb hypoxia inh, whose call it bears; growth inhibition, %; measured here: M. tuberculosis growth (absorbance);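 0% = vehicle and 100% = reference antibiotic; read after six days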
An asterisk follows results filed as active; ? = inconclusive; . = no result given.

SMILES | PrP UTR inh | RN4220 kill | BJeLR viability | Sa ugtP lethal | Mtb hypoxia inh | Mtb hypoxia inh growth | Autofluor counter
O=C(NCCS(=O)(=O)N1CCN(c2ccccc2F)CC1)C1CC(=O)N(c2ccccc2)C1 (stereo not drawn) | -16 | 1.3 | -10 | -8 | -3 | -5 | 5577
COc1ccccc1NC(=O)N1CCOCC1 | -17 | 5.0 | -4 | 7 | 14 | 7 | 4142
CC(C)=NOC(=O)c1c(C)noc1-c1snnc1C | -16 | 3.7 | 11 | 5 | -3 | -2 | 3713
COc1ccccc1N(CC(=O)NCCSc1ccccc1)S(C)(=O)=O | -6 | 5.9 | 1 | 12 | 0 | 8 | 7300
CC1CCN(C(=O)NC(=O)c2ccc(Cl)cc2)CC1 | -15 | 0.5 | -5 | 3 | 12 | -4 | 5574
CC(C)CC(=O)NC(Oc1ccc(Cl)cc1)C(Cl)(Cl)Cl (stereo not drawn) | -19 | 10 | -18 | -30 | 2 | 4 | 9043
Cc1ccc(S(=O)(=O)NC(CC(=O)n2nc(C)cc2C)c2ccccc2)cc1 (stereo not drawn) | -14 | 7.8 | 11 | 1 | . | . | 2627
COc1ccc(C=O)cc1Cn1cnc2c(cnn2C)c1=O | -4 | 3.7 | 3 | 1 | 6 | 5 | 5693
CN=C1SC(CC(=O)Nc2ccc(F)cc2F)C(=O)N1N=Cc1ccc(OC(F)F)c(OC)c1 (stereo not drawn) | . | 4.7 | . | -12 | 18 | 20 | .
COc1cccc(C(=O)SC2=NCCS2)c1 | -29 | 2.3 | -6 | 2 | 9 | 1 | 10032
CCCn1nnnc1-c1ccc(Cl)cc1 | -8 | 2.0 | -6 | -1 | 7 | 10 | 19416*
O=C1NC(=O)C(=O)N1 | -65 | 10 | . | -5 | 7 | 2 | 5817
O=C(NCCC1CCCC1)c1cccs1 | -50 | 5.1 | -2 | 13 | . | . | 3779
Cc1ccc(CNC(=O)CC2Sc3ccccc3NC2=O)cc1 (stereo not drawn) | -6 | 1.4 | -1 | -2 | 10 | -3 | 2483
O=C(C=Cc1ccc(S(=O)(=O)N2CCOCC2)cc1)NC(=S)NCCCn1ccnc1 | . | -2.6 | . | -8 | 5 | 4 | .
O=C1NC(=O)C(c2ccc(F)cc2)N1 (stereo not drawn) | -4 | 5.7 | -2 | 5 | -2 | 0 | 5250
BrC(=C\c1ccccc1)/C=N/N1CCN(c2ccccc2)CC1 | -22 | . | -11 | . | . | . | 3470
COc1ccccc1/C=C/C(=O)OCC(=O)N1CCc2ccccc21 | -23 | -0.2 | . | 8 | 6 | 0 | 3646
CC1CCN(S(=O)(=O)c2ccc(C(=O)Nc3ncccc3O)cc2)CC1 | -5 | 5.9 | -10 | 4 | 5 | 0 | 5357
Cc1ccc(-n2ccnc2SCC(=O)O)c(C)c1 | -13 | 1.7 | 0 | -4 | 3 | 5 | 2912
c1ccc(CNc2nc(-c3ccccn3)nc3ccccc23)cc1 | -10 | -1.1 | 5 | 13 | 4 | 9 | 3346
O=C(NCc1ccccc1Cl)c1ccc2c(c1)OCO2 | -16 | 22 | -12 | 13 | . | . | 6016
COc1cccc(C(=O)C2CCCN(C(=O)c3ccccc3Cl)C2)c1 (stereo not drawn) | 0 | 1.6 | 2 | 4 | 6 | 11 | 3749
Cc1nnc(NC(=O)c2ccc(S(=O)(=O)N(C)Cc3ccccc3)cc2)o1 | -7 | 18 | -2 | 10 | 5 | 6 | 3518
CC(=O)Nc1ccc(NC(=O)COC(=O)CCCc2c[nH]c3ccccc23)cc1 | -18 | 1.2 | 12 | 0 | 8 | -6 | 4017
CN(Cc1ccccc1)C(=O)c1cccc(NC(=O)Cc2ccc([N+](=O)[O-])cc2)c1 | -11 | 1.6 | . | 1 | 10 | 4 | 3396
CCCCN(C)C(=O)c1cc2cc3ccc(OC)cc3nc2s1 | -44 | 5.0 | 12 | -1 | 16 | 19 | 3426
COCCn1nnnc1C(c1cccc(C#N)c1)N1CCCCCC1 (stereo not drawn) | -11 | 1.6 | 9 | 1 | 15 | 7 | 6357
Cc1cccc(C)c1NC(=O)CN1CCN(C(=O)CN2C(=O)NC3(CCCCC3C)C2=O)CC1 (stereo not drawn) | -6 | 2.2 | . | 5 | 9 | -7 | 4604
O=C(OCC(=O)N1CCCC1=O)c1ccc(O)cc1O | -19 | 6.2 | 3 | 9 | 3 | -2 | ?
CCN1C(=O)C(=C2C=Cc3cc(C)ccc3N2CC)OC1=S | . | 4.1 | . | -6 | 23 | 2 | .
COC(=O)c1c(C)[nH]c(C(=O)C(C)OC(=O)c2ccco2)c1C (stereo not drawn) | -2 | 6.9 | . | 2 | -9 | 2 | 3971
CCC(C)c1ccccc1NC(=O)CN(C)CCOc1ccc(Cl)cc1 (stereo not drawn) | -7 | 18 | 1 | -15 | 2 | 0 | 3793
CC(C)(C)c1nc(CN2CCOCC2)cc(CN2CCOCC2)c1O | -18 | 5.7 | 2 | -1 | -7 | 14 | 6376
COc1ccc(C2=NN(C(=O)c3ccccc3)C(c3cccc([N+](=O)[O-])c3)C2)cc1 (stereo not drawn) | -7 | 1.7 | 9 | -38 | -8 | 2 | 4717
O=C(CN1C(=O)NC2(CCCCCC2)C1=O)NCc1ccccc1Cl | . | 2.3 | . | 3 | 2 | 10 | ?
CCc1ccc(NC(=O)COC(=O)Cn2cnc3ccccc32)cc1 | -6 | 2.3 | . | 2 | 3 | 7 | 5306
CN(CC(=O)Nc1ccccc1Cl)C(=O)Cn1cnc2ccc(Cl)cc2c1=O | 2 | 1.2 | . | 5 | 0 | 1 | 3059
Cc1ccc(C(=O)N/C(=C/c2ccco2)C(=O)N2CCCCC2)cc1 | -22 | 3.3 | -3 | 8 | -2 | 6 | 3495
C=CCNC(=O)c1ccc(CSc2nc3ccccc3s2)cc1 | -57 | 6.7 | -1 | -5 | 9 | 7 | 4110
Cc1ccc(NC(=O)c2nc[nH]c2C(=O)N[C@@H](C)c2ccccc2)cc1 | -2 | . | 3 | . | . | . | 3523
Cc1oc(-c2cccc(Cl)c2)nc1CS(=O)(=O)CC(=O)NCc1ccco1 | -16 | 0.1 | 5 | 5 | 7 | -6 | 5932
CCOCC(=O)Nc1c(C(=O)Nc2ccccc2OC)oc2ccccc12 | -18 | 2.6 | -19 | -10 | 6 | 14 | 10891
Cc1ccc(C(C)C)c(OCC(=O)Nc2sc3c(c2C#N)CC(C)(C)NC3(C)C)c1 | -9 | -2.1 | 3 | 3 | 25 | 16 | 3455
N#C/C(=C1/CCCCCN1)c1nc2ccccc2[nH]1 | -30 | 5.1 | 0 | 1 | 6 | 8 | 3605
Cc1ccc(S(=O)(=O)N2[C@@H](c3ccc(C(C)(C)C)cc3)C(C(=O)O)=CC[C@H]2c2cccs2)cc1 | -22 | 15 | . | -8 | -1 | 0 | 3065
CCOc1ccccc1C(=O)OCC(=O)Nc1ccc(N2CCCCC2)cc1 | -17 | -0.9 | 13 | -2 | 0 | -2 | 3216
CCCCCC(=O)Nc1ccc(-c2cn3cccnc3n2)cc1 | -16 | 5.3 | -1 | 1 | 2 | 7 | 4254
COc1ccccc1NC(=O)CN(Cc1ccco1)C(=O)c1ccc(-n2nc(C)cc2C)cc1 | -27 | 4.5 | 0 | 2 | 2 | 12 | 5148
CC/C(=N\NC(=O)c1cc(C)nc2ccccc12)c1ccc(C)s1 | -20 | . | -2 | . | . | . | 8661
CC(O)CNCCOc1ccccc1OCc1ccccc1 (stereo not drawn) | -19 | 14 | 11 | -63 | 17 | 5 | 5528
O=C1CSC(c2ccccc2)N1Cc1ccccn1 (stereo not drawn) | -22 | 6.6 | -7 | 3 | 12 | 2 | 4139
O=C(NCc1ccc(F)cc1)C1CCN(C(=O)NCc2ccccc2)CC1 | -19 | 4.8 | 3 | -8 | 4 | 3 | 6142
Cc1cc(C)n(-c2ccc(C(=O)NC3CCCCC3)cc2)n1 | -42 | -3.8 | -12 | 3 | 10 | 0 | 4288
CCC1CCCCN1C(=O)CSc1nc(N)c(NC(=O)c2ccco2)c(=O)[nH]1 (stereo not drawn) | -8 | 5.3 | 2 | 2 | -5 | 9 | 5643
CCCSc1ccc(C2N[C@@](Cc3ccccc3)(C(=O)OC)C3C(=O)N(CC)C(=O)C23)cc1 (stereo partly drawn) | . | 3.1 | . | -2 | 4 | 8 | .
S=C1NCC(Cc2ccccc2)N1CCCCC1CCCCC1 (stereo not drawn) | . | -7.4 | . | 56 | 0 | 0 | .
Cc1c(C)c(C)c2[nH]c(-c3ccc4c(c3)OCO4)nc2c1C | -19 | -8.0 | -10 | -16 | -5 | 10 | 4659
Cc1oc2cc3oc(=O)c(CC(=O)O)c(C)c3cc2c1-c1ccccc1 | -13 | 43 | -2 | -18 | -6 | 5 | 3862
Cc1ccc(CS(=O)(=O)c2nsc(C)c2C#N)cc1 | 0 | 6.6 | 4 | -3 | 3 | 6 | 2634

Next section:
SMILES | PrP UTR inh | RN4220 kill | BJeLR viability | Sa ugtP lethal | Mtb hypoxia inh | Mtb hypoxia inh growth | Autofluor counter
COc1ccc(Oc2c(C)nc(SCC(=O)c3ccc(Cl)cc3)[nH]c2=O)cc1 | -21 | 14 | 3 | -2 | 12 | 15 | .
CN(C)C(=O)CCc1ccc2c3c([nH]c2c1)[C@]1(CCc2ccccc2)[C@@H](C(=O)N2CCCCC2)C[C@H](CC(=O)NCc2ccco2)C(=O)N1CC3 | -12 | -0.3 | . | -3 | -6 | 6 | 3437
Fc1ccc(C2c3cccn3CCN2C(=S)Nc2cccc(Br)c2)cc1 (stereo not drawn) | -29 | 22 | -13 | 42 | -1 | 7 | 4063
Cc1cccc(N2C(=O)CC(SC(N)=Nc3ccccc3)C2=O)c1 (stereo not drawn) | -19 | 8.0 | 2 | 2 | 1 | 5 | 4527
COc1ccc(NS(=O)(=O)c2cccc(C(=O)NNC(=O)c3cccc(NC(C)=O)c3)c2)cc1 | -19 | -3.4 | 2 | -1 | -6 | -7 | 4331
CC(=O)NC(C)(C)C1CC=C(C)C(=NO)C1 (stereo not drawn) | . | 3.4 | . | 7 | 1 | 5 | .
CNC(=O)c1c(O)c2cccc3c2n(c1=O)CCC3 | -20 | 0.2 | -1 | 0 | 8 | 8 | 3801
c1ccc(N2CCN(c3nc(NCc4ccco4)c4ccccc4n3)CC2)cc1 | -15 | -3.7 | 7 | -7 | . | . | 3340
CC(=O)N(C(C)=O)N1C(=O)C2C3c4ccccc4C(c4ccccc43)C2C1=O (stereo not drawn) | -10 | -1.0 | 3 | 2 | 9 | 3 | 4358
O=c1c2ccccc2[nH]c(=S)n1CC1CCCO1 (stereo not drawn) | -17 | -0.4 | 8 | -1 | . | . | 3806
OCCCNCc1ccc(N(c2ccccc2)c2ccccc2)cc1 | -12 | -1.9 | -7 | 24 | 2 | 9 | 4032
COc1ccccc1/C=C/C(=O)OCCN1CCOCC1 | -8 | 4.4 | 1 | 1 | -2 | 3 | 1848
COc1ccc(C(C(=O)NC(C)(C)C)N(C(=O)CCC(=O)Nc2cc(C)on2)c2cc(C)cc(C)c2)cc1 (stereo not drawn) | -11 | -0.7 | 0 | 10 | 10 | 8 | 3480
Cc1ccc2cc(/C=C3\N=C(c4ccccc4)OC3=O)c(N3CCOCC3)nc2c1 | . | 3.0 | -5 | -5 | . | . | .
COC(=O)c1cc(C(=O)OC)[nH]n1 | -38 | 5.5 | -4 | 1 | -1 | -8 | 4129

Screening data from PubChem BioAssay.
